PKD1 inh – inhibitors of human PKD1 kinase, biochemical, fluorescence polarization; PKD1 kinase fluorescence polarization assay; inhibition, %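 (about 10 µM by stock and volumes)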; actives 0.056% (n = 200,000); AID 797, 2007;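 active means inhibition of 50% or more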;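 further: controls were vehicle for no effect and a reference inhibitor for full effect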
RGS16-Gao – modulators of RGS16 binding to Galphao, primary screen, biochemical, human proteins, multiplexed bead flow cytometry | Regulator of G-protein signaling 16 (Homo sapiens) + Guanine nucleotide-binding protein … | bead-based flow cytometry RGS16-Galphao binding, fluorescence; actives lie on both sides | binding response (% of control), % at 10 µM | actives 0.38% (n = 220,000);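 active means below 25% or above 175%, edge rows of some plates excepted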;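 further: Galphao activated by GDP with aluminum fluoride before binding; 100% = wells without compound and 0% = beads without RGS; some results beyond the cut were filed as inactive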
Target sequence (O15492 whole entry, looked up): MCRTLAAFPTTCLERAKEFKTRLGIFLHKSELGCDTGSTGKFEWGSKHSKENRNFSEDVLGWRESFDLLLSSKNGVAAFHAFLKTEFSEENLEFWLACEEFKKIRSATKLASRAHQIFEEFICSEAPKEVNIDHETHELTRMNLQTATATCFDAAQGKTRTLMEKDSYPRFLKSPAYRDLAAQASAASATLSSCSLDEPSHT
Target sequence (P09471 whole entry, looked up): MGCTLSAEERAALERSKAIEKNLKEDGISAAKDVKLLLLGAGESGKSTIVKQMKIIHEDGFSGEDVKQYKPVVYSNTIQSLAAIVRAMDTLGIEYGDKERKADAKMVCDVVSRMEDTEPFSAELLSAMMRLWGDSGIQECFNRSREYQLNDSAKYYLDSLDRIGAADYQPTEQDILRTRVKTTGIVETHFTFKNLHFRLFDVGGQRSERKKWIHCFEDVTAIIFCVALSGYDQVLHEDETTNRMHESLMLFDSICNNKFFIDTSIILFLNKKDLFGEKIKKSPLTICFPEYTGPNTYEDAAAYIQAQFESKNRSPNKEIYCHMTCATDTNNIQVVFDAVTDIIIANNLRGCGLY
GALR2 ag – GALR2 receptor agonists, primary screen, cell-based; activation, %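 (tested at 5 µM)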; Galanin receptor type 2 (Homo sapiens), O43603; actives 0.48% (n = 140,000); GALR2-expressing cells, agonist activation read-out;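 active means above mean plus 3 SD of all compounds, about 5% in these data, not always enough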;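 further: 0% = vehicle buffer wells and 100% = reference agonist at full effect; tested in CHO reporter cells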
Target sequence (O43603 whole entry, looked up): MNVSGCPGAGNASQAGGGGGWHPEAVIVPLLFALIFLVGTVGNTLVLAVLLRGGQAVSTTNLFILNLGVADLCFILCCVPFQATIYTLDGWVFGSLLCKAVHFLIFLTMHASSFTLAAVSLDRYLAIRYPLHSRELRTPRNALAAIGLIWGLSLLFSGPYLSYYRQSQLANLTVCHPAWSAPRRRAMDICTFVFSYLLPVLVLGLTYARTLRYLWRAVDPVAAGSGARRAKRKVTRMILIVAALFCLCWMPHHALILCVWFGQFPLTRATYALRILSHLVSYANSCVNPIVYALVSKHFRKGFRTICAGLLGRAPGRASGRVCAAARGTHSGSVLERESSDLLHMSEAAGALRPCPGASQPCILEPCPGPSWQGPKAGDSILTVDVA
HSV augment – enhancers of HSV replication in host cells, fold increase, host cell viability. HSV replication augmentation in cells. maximum fold increase. actives 0.005% (n = 220,000). AID 1956, 2009;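 active means peak rise of 1.5-fold or more in the series; inconclusive means self-fluorescent or not available for retest; tested in PC3 cells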;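 further: first round at 10 µM; read as green reporter fluorescence; hits show the peak of a series up to 25 µM; 1 = signal of infected wells without compound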
Insulin prom inh – inhibitors of insulin promoter-driven GFP, primary screen, imaging, TRM-6 cells (human fetal islet line), eGFP reporter, cell count; reporter expression induced with tamoxifen; inhibition, % at 2 µM; actives 0.9% (n = 130,000); AID 1273, 2008;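 active means inhibition above the mean plus 3 SD, with well images judged a real hit on visual review, cut at about 60% in these data, passing the limit was not always enough; inconclusive means inhibition over the cutoff but images rejected on review; inactive means inhibition not above the cutoff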
Insulin prom inh cell count – second read-out of Insulin prom inh, no call of its own (marks repeat the call); normalized cell count, %; measured here: cell count, toxicity; reference of the scale not given here;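 cells exposed to compound for 48 h; stained nuclei by imaging scaled within each plate; lower means fewer cells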
HSV augment primary fold – also measured in HSV augment; calls as there; fold increase; compound at 10 µM; measured here: primary screen fold increase 10 uM; tested in PC3 cells;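 GFP signal in the first replicate; 1 = infected wells without compound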
* hit, by the source's call. Random draw from the library; overall some 1.1% were active at least once.

Screening COCCSc1nnc(NC(=O)C2CCCCC2)s1 returned PKD1 inh -0.7, RGS16-Gao 177.1, GALR2 ag -1.6, HSV augment inactive, Insulin prom inh -21.4, Insulin prom inh cell count 66.2 and HSV augment primary fold 0.85.
For CC(C)CNC(=O)c1cccc(NC(=O)Cc2ccc(Cl)cc2)c1 the results were PKD1 inh 3.2, RGS16-Gao 101.1, GALR2 ag -1.5, HSV augment inactive, Insulin prom inh 25.0, Insulin prom inh cell count 107.0 and HSV augment primary fold 0.98.
`Cc1cccc(CS(=O)(=O)Cc2ccc(C(=O)NCC3CCCO3)o2)c1` (stereo unspecified) gave PKD1 inh -8.1, RGS16-Gao 102.2, GALR2 ag -2.8, Insulin prom inh 33.3 and Insulin prom inh cell count 118.8.
CSc1nnc2n(-c3ccccc3)c(=O)c3c4c(sc3n12)CCC4 was read as PKD1 inh -12.8, RGS16-Gao 96.6, GALR2 ag -0.2, HSV augment inactive and HSV augment primary fold 1.04.
O=C(NCC(=O)N(c1ccccc1F)C(C(=O)NC1CCCC1)c1ccco1)c1ccco1 (stereo unspecified) was read as PKD1 inh 4.8, RGS16-Gao 97.0, HSV augment inactive and HSV augment primary fold 1.01.
CCSc1ncc(CO)c(N)n1 was read as RGS16-Gao 111.2, HSV augment inactive and HSV augment primary fold 0.94.
Screening Cc1cc(Nc2ccccc2)n(-c2cccc(Cl)c2)n1 returned PKD1 inh -7.4, RGS16-Gao 93.7, GALR2 ag -0.7, HSV augment inactive, Insulin prom inh 20.0, Insulin prom inh cell count 108.8 and HSV augment primary fold 0.77.
Cn1nnnc1SCC(=O)Nc1ccccc1N1CCCCC1 was read as PKD1 inh -0.7, RGS16-Gao 105.3, GALR2 ag -2.4, HSV augment inactive, Insulin prom inh 58.3, Insulin prom inh cell count 101.5 and HSV augment primary fold 0.97.
For CCCCC(=O)Nc1ccccc1N1CCOCC1 the results were PKD1 inh -5.7, RGS16-Gao 97.0, HSV augment inactive and HSV augment primary fold 1.02.
O=S(=O)(c1ccc(-c2nnc(SCc3nnc(-c4ccccc4)o3)o2)cc1)N1CCCC1 was read as PKD1 inh -3.8, RGS16-Gao 101.7, GALR2 ag 1.4, HSV augment inactive, Insulin prom inh 7.1, Insulin prom inh cell count 128.8 and HSV augment primary fold 0.79.
`CCN(CC)CCOc1ccccc1C(C)=O` gave PKD1 inh -2.1, RGS16-Gao 98.5, HSV augment inactive, Insulin prom inh 10.0, Insulin prom inh cell count 158.0 and HSV augment primary fold 0.94.
Screening Cc1cccc(N2C(=O)/C(=C\c3ccc(OC(F)F)cc3)c3ccccc3C2=O)c1 returned PKD1 inh -14.9, RGS16-Gao 91.0, GALR2 ag -0.8, HSV augment inactive and HSV augment primary fold 0.94.
`CCN(CC)c1ccc(C(=O)NC(=S)Nc2cc(S(=O)(=O)N3CCOCC3)ccc2-n2cncn2)cc1` gave PKD1 inh 1.6, RGS16-Gao 9.5, GALR2 ag -1.4, HSV augment inactive, Insulin prom inh 50.6, Insulin prom inh cell count 67.5 and HSV augment primary fold 1.1.
Screening CCOc1ccc(C(CC(=O)O)NC(=O)CCCOc2ccc(Cl)cc2C)cc1 (stereo unspecified) returned PKD1 inh 5.7, RGS16-Gao 83.8, HSV augment inactive and HSV augment primary fold 0.94.
For c1ccc(Oc2cccc(OCCCCN3CCCC3)c2)cc1 the results were PKD1 inh -5.7, RGS16-Gao 167.0, GALR2 ag -0.2, HSV augment inactive, Insulin prom inh -2.6, Insulin prom inh cell count 37.2 and HSV augment primary fold 0.77.
For O=C(C[n+]1ccc(/C=N/O)cc1)N1CCCCC1 the results were RGS16-Gao 98.0, HSV augment inactive and HSV augment primary fold 0.96.
For COc1cc(/C=C2\SC(=S)N(CC(=O)Nc3ccc(O)cc3)C2=O)cc(OC)c1OC the results were PKD1 inh 10.4, RGS16-Gao 102.6, HSV augment inactive and HSV augment primary fold 1.01.
CN(Cc1cccs1)c1ncnc2sccc12 was read as PKD1 inh -4.1, RGS16-Gao 107.9, GALR2 ag -1.9, HSV augment inactive, Insulin prom inh -16.2, Insulin prom inh cell count 116.9 and HSV augment primary fold 1.02.
O=C(NCCCn1ccnc1)Nc1ccc(Cl)cc1Cl was read as PKD1 inh 0.6, RGS16-Gao 125.6, GALR2 ag -1.5, HSV augment inactive, Insulin prom inh 37.2, Insulin prom inh cell count 114.2 and HSV augment primary fold 1.05.
`Nc1ccc(Cc2ccc(N)c(C(=O)O)c2)cc1C(=O)O` gave PKD1 inh -1.5, RGS16-Gao 99.8, GALR2 ag -3.9, HSV augment inactive, Insulin prom inh 1.8, Insulin prom inh cell count 106.1 and HSV augment primary fold 0.99.

Part of the list above in order of molecular weight, rising:
CCSc1ncc(CO)c(N)n1 was read as RGS16-Gao 111.2, HSV augment inactive and HSV augment primary fold 0.94.
O=C(NCCCn1ccnc1)Nc1ccc(Cl)cc1Cl was read as PKD1 inh 0.6, RGS16-Gao 125.6, GALR2 ag -1.5, HSV augment inactive, Insulin prom inh 37.2, Insulin prom inh cell count 114.2 and HSV augment primary fold 1.05.
O=C(NCC(=O)N(c1ccccc1F)C(C(=O)NC1CCCC1)c1ccco1)c1ccco1 (stereo unspecified) was read as PKD1 inh 4.8, RGS16-Gao 97.0, HSV augment inactive and HSV augment primary fold 1.01.

New compounds follow:
Screening O=C(CSc1nnc(-c2ccccc2)n1-c1ccc(Cl)cc1)NNC(=S)Nc1ccccc1 returned PKD1 inh -4.2, RGS16-Gao 68.6, GALR2 ag 0.5, HSV augment inactive and HSV augment primary fold 1.04.
For COc1ccc(NC(=O)c2cc(S(=O)(=O)NCC3COc4ccccc4O3)ccc2F)cc1 (stereo unspecified) the results were PKD1 inh -8.4, RGS16-Gao 100.0, GALR2 ag -0.3, HSV augment inactive and HSV augment primary fold 0.94.
`Cc1ccc(CNC(=O)CSc2ccc(-c3ccccn3)nn2)cc1` gave PKD1 inh -5.4, RGS16-Gao 109.7, HSV augment inactive, Insulin prom inh -75.0, Insulin prom inh cell count 97.5 and HSV augment primary fold 0.95.
Screening COc1ccccc1-n1c(C)c2c(OC)cccc(=O)c2c1C returned PKD1 inh 7.5, RGS16-Gao 31.2, GALR2 ag -1.2, HSV augment inconclusive, Insulin prom inh 9.8 and Insulin prom inh cell count 90.1.
`O=C1N(Cc2cccc(Cl)c2)C[C@@H]2C[C@@H](c3cccn3-c3cccnc3)N3CCC[C@@]123` gave PKD1 inh 0.0, RGS16-Gao 101.0, HSV augment inactive, Insulin prom inh 16.7, Insulin prom inh cell count 123.6 and HSV augment primary fold 0.96.
`NC(=O)COC(=O)/C=C/c1cccc(Br)c1` gave PKD1 inh 6.4, RGS16-Gao 95.6, HSV augment inactive and HSV augment primary fold 0.89.
`CCOc1cc(C(=O)NC)cc(Br)c1OCc1ccccc1` gave PKD1 inh -7.4, RGS16-Gao 96.1, HSV augment inactive, Insulin prom inh 36.4, Insulin prom inh cell count 123.3 and HSV augment primary fold 1.08.
Screening O=C(C1CCN(c2ccc(N3CCOCC3)nn2)CC1)N1CCc2ccccc2C1 returned PKD1 inh -13.1, RGS16-Gao 98.2, GALR2 ag -0.6, HSV augment inactive, Insulin prom inh 35.7, Insulin prom inh cell count 42.8 and HSV augment primary fold 0.98.
CN1CCN(c2cc3c(cc2F)c(=O)c(C(=O)O)cn3CCF)CC1 was read as RGS16-Gao 94.5, HSV augment inactive and HSV augment primary fold 0.96.
For N/C(=N\OC(=O)N1c2ccccc2Sc2ccccc21)c1ccc(Br)cc1 the results were PKD1 inh -1.5, RGS16-Gao 101.0, GALR2 ag -2.0, HSV augment inactive, Insulin prom inh 79.3*, Insulin prom inh cell count 124.2* and HSV augment primary fold 0.9.
Screening O=C(CCSc1ccccc1)Nc1ccc(S(=O)(=O)N2CCOCC2)cc1 returned PKD1 inh -4.5, RGS16-Gao 112.7, GALR2 ag -2.5, HSV augment inactive, Insulin prom inh -8.6, Insulin prom inh cell count 162.8 and HSV augment primary fold 1.01.
Screening O=C1c2ccccc2C(=O)N1c1nc(-c2cccs2)cs1 returned PKD1 inh -8.7, RGS16-Gao 91.2, GALR2 ag -2.4, HSV augment inactive, Insulin prom inh 15.4, Insulin prom inh cell count 88.6 and HSV augment primary fold 1.1.
Screening CCCS(=O)(=O)N1CCN(S(=O)(=O)c2ccccc2[N+](=O)[O-])CC1 returned PKD1 inh -5.2, RGS16-Gao 104.2, HSV augment inactive, Insulin prom inh 11.8, Insulin prom inh cell count 62.0 and HSV augment primary fold 0.99.
For O=C(COc1ccc([N+](=O)[O-])cc1)NCCC1=CCCCC1 the results were PKD1 inh 3.0, RGS16-Gao 100.9, GALR2 ag -1.4, HSV augment inactive, Insulin prom inh -70.0, Insulin prom inh cell count 49.5 and HSV augment primary fold 0.99.
Screening O=C(CSc1nnc(CNC(=O)c2ccco2)o1)c1ccccc1 returned PKD1 inh 0.7, RGS16-Gao 94.6, GALR2 ag -1.0, HSV augment inactive, Insulin prom inh -32.3, Insulin prom inh cell count 109.6 and HSV augment primary fold 1.04.
`CC(N)C12CC3CC(CC(O)(C3)C1)C2` (stereo unspecified) gave PKD1 inh 4.9, RGS16-Gao 102.2, GALR2 ag -1.6, HSV augment inactive, Insulin prom inh -26.1, Insulin prom inh cell count 83.5 and HSV augment primary fold 0.81.
CCN(CC)c1nc2cc(C)ccc2cc1/C=C(\C#N)C(N)=O was read as PKD1 inh -1.2, RGS16-Gao 102.8, HSV augment inactive and HSV augment primary fold 1.1.
`NC(=O)[C@H](Cc1cc2ccccc2s1)NC(=O)[C@@H]1CC2(CC(c3cccc(NC(=O)[C@@H]4CCC(=O)N4)c3)=NO2)CN1C(=O)/C=C/Sc1ccccc1` (stereo partly specified) gave PKD1 inh -1.0, RGS16-Gao 99.1, GALR2 ag -1.4, HSV augment inactive, Insulin prom inh 20.0, Insulin prom inh cell count 122.9 and HSV augment primary fold 1.15.
Screening Cc1ccccc1Nc1ccc(S(=O)(=O)N2CCOCC2)cc1[N+](=O)[O-] returned PKD1 inh -8.6, RGS16-Gao 110.1, GALR2 ag -1.3, HSV augment inactive, Insulin prom inh 39.7, Insulin prom inh cell count 98.3 and HSV augment primary fold 0.93.
Screening Cc1nc2ccc(C(=O)O)cc2nc1C returned PKD1 inh -6.5, RGS16-Gao 101.9, GALR2 ag -1.2, HSV augment inactive, Insulin prom inh 13.3, Insulin prom inh cell count 113.6 and HSV augment primary fold 0.96.

Structural class: those above containing an aryl methoxy group (3)
For COc1cc(/C=C2\SC(=S)N(CC(=O)Nc3ccc(O)cc3)C2=O)cc(OC)c1OC the results were PKD1 inh 10.4, RGS16-Gao 102.6, HSV augment inactive and HSV augment primary fold 1.01.
For COc1ccc(NC(=O)c2cc(S(=O)(=O)NCC3COc4ccccc4O3)ccc2F)cc1 (stereo unspecified) the results were PKD1 inh -8.4, RGS16-Gao 100.0, GALR2 ag -0.3, HSV augment inactive and HSV augment primary fold 0.94.
Screening COc1ccccc1-n1c(C)c2c(OC)cccc(=O)c2c1C returned PKD1 inh 7.5, RGS16-Gao 31.2, GALR2 ag -1.2, HSV augment inconclusive, Insulin prom inh 9.8 and Insulin prom inh cell count 90.1.

New compounds follow
CCCCCn1c(NC2CCCCC2)nc2c1c(=O)[nH]c(=O)n2C was read as RGS16-Gao 105.4, HSV augment inactive and HSV augment primary fold 1.
For CN(C)S(=O)(=O)c1cccc(NC(=O)CSc2nc3ccccc3n2-c2ccccc2)c1 the results were PKD1 inh -1.7, RGS16-Gao 130.3, GALR2 ag 0.5, HSV augment inactive, Insulin prom inh -56.7, Insulin prom inh cell count 83.1 and HSV augment primary fold 0.95.
Screening COc1ccc(-c2cc(C(F)(F)F)nc(SCC(=O)N(C)Cc3cnn(C)c3C)n2)cc1OC returned PKD1 inh -3.5, RGS16-Gao 102.5, GALR2 ag -0.5, HSV augment inactive, Insulin prom inh -12.5, Insulin prom inh cell count 155.9 and HSV augment primary fold 0.93.
COC(=O)c1ccc(C2/C(=C(/O)c3ccc(OC)cc3)C(=O)C(=O)N2c2cc(C)on2)cc1 (stereo unspecified) was read as PKD1 inh 15.9, RGS16-Gao 110.7, GALR2 ag -1.9, HSV augment inactive and HSV augment primary fold 1.09.
O=C(NC1CCCC1)C1c2ccccc2C(=O)N1C1CCCCC1 (stereo unspecified) was read as PKD1 inh 4.5, RGS16-Gao 103.9, GALR2 ag -2.2, HSV augment inactive, Insulin prom inh -21.4, Insulin prom inh cell count 174.0 and HSV augment primary fold 1.16.
For c1ccc(C2=Nn3c(nnc3-c3cccs3)SC2)cc1 the results were RGS16-Gao 97.7, HSV augment inactive and HSV augment primary fold 0.88.
